NS1 inh = blocks influenza NS1 protein function; S. cerevisiae slowed by influenza A NS1, growth recovery by OD600; Potency, µM (doses to about 46.1 µM), inactives show top-dose activity, positive = more growth; 270,000 compounds, 0.4% hits; AID 2326; active means well fitted rising curve with a large enough effect; inconclusive means small, poorly fitted or top-dose-only effect; inactive means no such curve, though single readings can be large or run the other way; further: nearly all actives have a fitted effect of over 50% in size
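OD600 was taken as the measure of yeast growth restored by compound in an NS1-expressing S. cerevisiae strain. Cells had been washed out of glucose medium and diluted 1:100 into galactose -URA medium, pH 6.0.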
StopGo reporter = lowers the luciferase signal of an FMDV 2A StopGo reporter; human cells with a luciferase reporter of 2A StopGo recoding; control for the full effect not named in the record; 410,000 compounds, 1.2% hits; Potency, µM (doses to about 57.9 µM), inactives show at the top dose signal change, negative = less light; active = well fitted falling curve with a large enough effect; inconclusive = small, poorly fitted or top-dose-only effect; inactive = no such curve, though single readings can be large or run the other way; tested in HEK293T cells; further: on the % scale 0 is the no-effect control and ±100 the full control effect; nearly all actives have a fitted effect of over 45% in size; luciferase light after 4 h
SARS PLP yeast = inhibitors of SARS-CoV papain-like protease in yeast; 330,000 compounds, 0.19% hits; Potency, µM (series often up to 32.9 µM), for inactives: at the highest dose activity, positive = growth rescue; AID 485353; S. cerevisiae expressing SARS-CoV PLpro, growth rescue; control for the full effect not named in the record; active means well fitted rising curve with a large enough effect; inconclusive means small, poorly fitted or top-dose-only effect; inactive means no such curve, though single readings can be large or run the other way; further: 0% is about no effect; nearly all actives have a fitted effect of over 55% in size; growth read by luminescence after 48 h
Lassa entry inh = Lassa virus entry inhibition; Lassa virus pseudotype entry inhibition, cell reporter; control for the full effect not named in the record; Potency, µM (top dose mostly 37.9 µM), for inactives: top-dose activity change, negative = inhibition, actives largely listed as inhibitors; 300,000 compounds, 1.2% hits; active means well fitted inhibition curve with a large enough effect; inconclusive means small, poorly fitted or top-dose-only effect, or effect the other way; inactive means flat fitted curve, though single readings scatter; tested in HEK293 cells; further: on the % scale 0 is the no-effect control and ±100 the full control effect; nearly all actives have a fitted effect of over 50% in size; luciferase read-out
Cruzain Triton = blocks cruzain activity in presence of Triton detergent; P25779; purified cruzain, Z-FR-AMC fluorescence, 0.01% Triton; Potency, µM, for the others: max response, negative = inhibition, usual class: inhibitors; 200,000 compounds, 0.43% hits;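 further: plate controls were neutral wells for no effect and buffer without enzyme for full effect; nearly all actives have a fitted effect of over 40% in size; top concentration of the series not given in the record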
Target sequence (P25779 123-467 limits assumed): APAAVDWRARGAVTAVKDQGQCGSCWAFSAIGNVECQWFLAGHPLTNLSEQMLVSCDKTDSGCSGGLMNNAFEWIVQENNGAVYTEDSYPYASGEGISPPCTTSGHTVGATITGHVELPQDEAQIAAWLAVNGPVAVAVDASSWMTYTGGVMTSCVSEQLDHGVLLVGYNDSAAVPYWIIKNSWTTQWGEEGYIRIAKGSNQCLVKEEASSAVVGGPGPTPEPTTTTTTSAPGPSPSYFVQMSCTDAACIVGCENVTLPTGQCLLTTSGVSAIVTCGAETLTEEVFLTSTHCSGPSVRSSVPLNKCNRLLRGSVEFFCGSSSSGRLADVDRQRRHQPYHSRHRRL
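Detergent-containing run (0.01% Triton X-100) in acetate buffer pH 5.5 with 5 mM DTT: enzyme at 1.5 nM final, 15 min compound preincubation at room temperature, then 2 uM Z-FR-AMC substrate. Activity taken as 60 s fluorescence increase at 360/450 nm.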
Marburg entry inh = blocks Marburg virus binding to or entry into cells | AID 540276 | Marburg virus pseudotyped entry inhibition, cell reporter; control for the full effect not named in the record; about a third of the inactives were read at about 46 µM | 300,000 compounds, 1.8% hits | Potency, µM (series often up to 37.8 µM), inactives show at the highest dose activity change, negative = inhibition, most hits filed as inhibitors; active = well fitted inhibition curve with a large enough effect; inconclusive = small, poorly fitted or top-dose-only effect, or effect the other way; inactive = flat fitted curve, though single readings scatter; tested in HEK293 cells; about a fifth of its hits are not listed in these tables; further: on the % scale 0 is the no-effect control and ±100 the full control effect; luciferase read-out
Cruzain noTriton = inhibitors of Trypanosoma cruzi cruzain without detergent | P25779 | purified cruzain, Z-FR-AMC fluorescence, no detergent | Potency, µM, for the others: max response, negative = inhibition, hits mostly inhibitors | 200,000 compounds, 2.3% hits;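 further: plate controls were enzyme without inhibitor for no effect and buffer without enzyme for full effect; nearly all actives have a fitted effect of over 40% in size; top concentration of the series not given in the record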
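Purified cruzain at 1.5 nM, pre-incubated 15 min with compound at room temperature in 100 mM sodium acetate pH 5.5, 5 mM DTT, 0.00005% Triton X-100. Reaction started with 2 uM Z-FR-AMC; AMC fluorescence increase over 60 s gives rate.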
RE007 growth inh = less growth of the S. pombe RE007 Vpr strain | S. pombe RE007 Vpr strain, BacTiter-Glo ATP luminescence, 24 h; control for the full effect not named in the record | Potency, µM (series often up to 92.2 µM), for the others: at the highest dose activity change, negative = less growth | 360,000 compounds, 0.21% hits | AID 651644; active = well fitted falling curve with a large enough effect; inconclusive = small, poorly fitted or top-dose-only effect; inactive = no such curve, though single readings can be large or run the other way;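 further: on the % scale 0 is the no-effect control and ±100 the full control effect; nearly all actives have a fitted effect of over 50% in size; the assay follows cell death caused by Vpr and the record does not say whether a fall means rescue or toxicity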
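Fission yeast RE007 carrying one integrated HIV-1 vpr copy, seeded at OD 0.01 in PMG+AL medium with 23 nL pinned compound. Grown 24 h at 30 degrees; viability read by BacTiter-Glo luminescence after 5 min.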
* = called active by the depositor; u = inconclusive; x = no result given; [ ] = dose if it differs, or a comment. Unless noted, the call rests on the fitted dose curve; in most records, active means well fitted curve in the direction sought with a large enough effect; inconclusive means small, poorly fitted or top-dose-only effect, or another doubt; inactive means no such curve, though single readings can be large; an effect the other way counts as inactive or inconclusive. Potency means the concentration at half of the fitted maximal effect. Rows were taken by chance, and some 4.5% of all compounds hit somewhere here.

no.	Compound	NS1 inh	StopGo reporter	SARS PLP yeast	Lassa entry inh	Cruzain Triton	Marburg entry inh	Cruzain noTriton	RE007 growth inh
1	O=C(CNC(=S)N(Cc1ccccc1)Cc1cccnc1)NC1CC1	16%	-7%	4%	-1%	0.8%	-6%	0%	-7%
2	CNC(=S)N(Cc1ccc2c(c1)OCO2)C1CC(=O)N(c2ccc(F)cc2)C1=O (stereo not given)	24%	-14%	-2%	-15%	0.0%	-17%	3%	3%
3	COc1ccc(-c2[nH]ncc2CNC(C)Cc2cccc(C)n2)cc1F (stereo not given)	0%	16%	0%	9%	x	u	x	4%
4	O=C(O)C(Cc1cccs1)c1cccs1 (stereo not given)	x	-10%	x	u	x	0%[46.1 µM]	x	-5%
5	O=C(Nc1ccccc1C(=O)NC1CCCC1)NC1CCCC1	-4%	16%	0%	-2%	2.4%	23%	-1%	0%
6	O=C(c1cc(-c2ccccc2)nc2ccccc12)N1CCOCC1	-23%	-23%	-4%	3%	-10%	10%	-11%	-6%
7	Fc1cccc(Cl)c1/C=C/c1cnc2ccccc2n1	-4%	-87%	-1%	u	x	u	x	-3%
8	O=S(=O)(Cc1ccccc1)N1CCN(c2ncccn2)CC1	0%	9%	-2%	23%	x	15%[46.1 µM]	x	-2%
9	CCOC(=O)c1cc(-c2ccc3c(c2)OCO3)nc2onc(C)c12	-3%	10%	-1%	13%	-2.7%	3%	28%	-1%
10	CCN(CC(=O)Nc1ccc(NC(C)=O)cc1)C(=O)c1ccc(C(=O)c2ccccc2)cc1	x	-2%	1%	8%	x	16%	x	9%
11	CNc1ccccc1C(=O)OCC(=O)N1CCN(c2ccc(OC)cc2)CC1	-13%	-20%	0%	u	x	3%	x	-12%
12	CCc1ccc(NC(=O)Cn2c(=O)n(-c3ccccc3C)c(=O)c3c2c2cc(OC)ccc2n3C)cc1	x	-15%	x	u	-2.9%	x	10%	x
13	CCOC(=O)N1CCN(CC(O)COCc2cc(OC)c(OC)c(OC)c2)CC1 (stereo not given)	-6%	-18%	4%	-1%	3.6%	u	-6%	7%
14	Cc1cc(C)n(-c2nc(NCCCN(C)C)c3c4c(sc3n2)CCCC4)n1	4%	19%	0%	u	x	u	x	-1%
15	COc1ccc(/C(C)=N/Nc2nncc3ccccc23)cc1	2%	-3%	0%	u	x	u	x	0%
16	COc1ccc(N/C=C\C(=O)c2ccc3c(c2)OCO3)cc1	-138%	17%	-21%	u	2.3%	u	u	u
17	COc1ccc2oc3cc(C)[n+]([O-])c(-c4ccc(Br)cc4)c3c2c1	3%	32µM*	0%	u	-0.2%	-28%	-13%	22%
18	Cc1cc2cc(C)c(NCCNC(=O)c3cccc(F)c3)nc2cc1C	3%	-19%	-1%	x	x	x	x	-8%
19	Cc1cc(C)c(NC(=O)CNC(=O)CSc2nnc(N)s2)c(C)c1	x	-6%	2%	-3%	x	-5%[46.1 µM]	x	-10%
20	Cc1ncnc(N)c1CCCNc1ccccc1	x	-21%	x	-15%	x	u	x	12%
21	Cc1ccc2nc(SCC(=O)O)nc(C)c2c1	0%	x	0%	6%	-0.7%	0%	-3%	4%
22	CSc1oc(-c2ccco2)nc1S(=O)(=O)c1ccccc1	5%	-8%	-4%	x	-3.5%	x	-16%	12%
23	CC1(C)CC(=O)N(CC(=O)O)c2ccccc2S1(=O)=O	-5%	-3%	5%	x	6.7%	2%	-4%	5%
24	O=C(CCC(=O)N1CCN(S(=O)(=O)c2ccc3ccccc3c2)CC1)NCC(F)(F)F	-10%	9%	-2%	5%[46.1 µM]	x	9%[46.1 µM]	x	1%
25	O=C(CCNC(=O)c1ccc(Br)o1)NCc1ccccn1	-6%	33%[activator]	-8%	-1%	-1.2%	4%	8%	-5%
26	CCOC(=O)c1cnc2c(ccc3ccccc32)c1Nc1cccc(C(F)(F)F)c1	x	-6%	x	13%[46.1 µM]	3.2%	x	0%	x
27	CC(C)OCc1cc(CN2CCN(c3cccc(C(F)(F)F)c3)CC2)c(O)c2ncccc12	x	-25%	x	u	1.3%	u	5%	x
28	O=C(CSc1nc2ccccc2c(=O)n1CC1CCCO1)NCCc1ccccc1 (stereo not given)	20%	-4%	3%	x	x	x	x	6%
29	Cc1c(NC(=O)NCCN2C(=O)C3C4C=CC(C4)C3C2=O)c(=O)n(-c2ccccc2)n1C (stereo not given)	-1%	-14%	3%	x	8.5%	x	-4%	10%
30	O=[N+]([O-])c1ccc(Nc2nc(NCCO)nc(N3CCCC3)n2)cc1	x	-20%	-1%	-12%[46.1 µM]	x	u	x	2%
31	CS(=O)(=O)Nc1ccc2c(c1)OCC(=O)N2Cc1ccccc1	-2%	-14%	0%	x	x	x	x	-10%
32	O=C(OCN1C(=O)c2ccccc2C1=O)c1ccco1	14%	-2%	1%	13%	-7.8%	7%	-13%	5%
33	COc1ccccc1-c1nc(CNC(=O)Nc2ccccc2)c(C)o1	x	18%	x	1%[46.1 µM]	-0.3%	x	1%	x
34	COC(=O)CC1SC(=O)NC1=Nc1ccccc1 (stereo not given)	-5%	23%	0%	2%	3.7%	0%	3%	-2%[3.69 µM]
35	NC(=O)c1oc2ccccc2c1NC(=O)CN1CCCCC1	1%	8%	-4%	14%	-2.3%	0%	-8%	-1%
36	O=C(c1ccncc1)N(Cc1ccccc1)Cc1nc2ccccc2c(=O)[nH]1	-1%	-13%	4%	3%	-6.3%	4%	-10%	3%
37	O=C(NCCc1ccc(Cl)cc1)C1CCN(Cc2cc3ccccc3n2Cc2ccccc2)CC1	x	-9%	x	-21%[46.1 µM]	-6.7%	x	-17%	x
38	COc1cccc(-c2onc3ccc(C(C)=O)cc23)c1	0%	16%	0%	x	x	x	x	-7%
39	Cc1cccn2c(=O)c3cc(C(=O)N4COCC4(C)C)n(C)c3nc12	-12%	-4%	0%	-4%	-3.3%	u	-4%	-9%
40	COc1ccc(-c2csc3ncnc(N4CCN(S(=O)(=O)c5cccs5)CC4)c23)cc1	x	-17%	5%	u	x	u	x	6%
41	C=CCOc1ccc(/C=C/C(=O)OCC(=O)N2CCCc3ccccc32)cc1	x	0%	3%	15%	x	24%	x	9%
42	NC(=O)C1CCN(C(=O)CCc2nc3ccccc3c(=O)[nH]2)CC1	-2%	7%	-4%	4%	1.4%	3%	2%	-10%
43	COC(=O)Nc1nn(Cc2ccccc2F)cc1Br	4%	-7%	1%	24%	0.1%	11%	-5%	20%
44	CC(C)C(=O)N1CC(=O)Nc2ccc(F)cc2C1c1ccc(F)cc1 (stereo not given)	5%	-8%	0%	u	x	-25%	x	4%
45	O=C(CCNC(=O)c1ccco1)Nc1ccc(C(F)(F)F)cc1	16%	4%	22%	10%	x	10%[46.1 µM]	x	-5%
46	CCCCCCC(=O)N1C/C=C\C(c2ccc(OC)cc2)N(Cc2ccc(F)cc2)C(=O)[C@H]1Cc1ccccc1 (stereo not given in full)	7%	u	-9%	x	x	x	x	-22%
47	CC12CCC(O)CC1CCC1C2CCC2(C)C(C3=CC(=O)OC3)CCC12O (stereo not given)	x	u	x	0.45µM*	x	0.28µM*	x	3%
48	NC(=O)c1cc(C(=O)c2cccc(Cl)c2Cl)c[nH]1	16%	-17%	0%	14%[46.1 µM]	x	5%[46.1 µM]	x	11%
49	COc1cccc(Cn2nnc(C(=O)Nc3cc(C)ccc3C)c2N)c1	x	21%	x	1%[46.1 µM]	-4.6%	-13%[46.1 µM]	-13%	x
50	CCCC(=O)N(c1ccc2oc(=O)sc2c1)S(=O)(=O)c1cccs1	-31%	-28%	-7%	u	-3.4%	1%[46.1 µM]	-14%	11%
51	COc1ccc(Nc2nccc(-c3cccc(N)c3)n2)cc1	u	0%	-3%	x	x	x	x	3%
52	Cc1ccccc1NC(=O)C(Cc1ccccc1)n1cccc1 (stereo not given)	-4%	-13%	-3%	-4%	x	-11%[46.1 µM]	x	-2%
53	NC(=O)Cn1c(=O)oc2ccccc21	10%	-9%	u	-4%	6.8%	4%	7%	26%
54	Cc1occc1C(=O)NNC(=O)c1ccc(Br)o1	x	-2%	-1%	2%	x	14%[46.1 µM]	x	-8%
55	CC(=O)c1ccc(N2C(=O)N(Cc3cccc(C(F)(F)F)c3)c3ccccc3S2(=O)=O)cc1	x	u	x	u	-2.3%	x	-7%	x
56	Cc1cc(C)n(-c2nc3ccccc3nc2Nc2ccc(Cl)cc2Cl)n1	x	-6%	x	7%[46.1 µM]	1.2%	x	-5%	x
57	CCOC(=O)CN1C(c2ccc(O)cc2)Nc2ccc(Br)cc2C1c1ccccc1 (stereo not given)	-10%	u	-38%	u	-7.4%	u	-3%	16%
58	CCCC(C)NC(=S)NC(=O)c1cc(S(=O)(=O)N2CCOCC2)ccc1C (stereo not given)	7%	u	0%	-33%	-7.6%	u	4%	8%
59	O=C(CCCNS(=O)(=O)c1cccs1)N1CCN(c2cccc(Cl)c2)CC1	-3%	u	4%	u	-6.8%	u	u	2%
60	Cc1ccccc1CN1C(=O)c2ccccc2S(=O)c2ccc(C(=O)NCCCN3CCOCC3)cc21 (stereo not given)	6%	-15%	23%	x	x	x	x	-4%

Additional entries
no.	Compound	NS1 inh	StopGo reporter	SARS PLP yeast	Lassa entry inh	Cruzain Triton	Marburg entry inh	Cruzain noTriton	RE007 growth inh
61	CCCc1nnc(NC(=O)CS(=O)(=O)c2ccccc2)s1	-5%	6%	0%	9%[46.1 µM]	x	9%[46.1 µM]	x	5%
62	Cn1c(C(=O)NCc2cccnc2)cc2sc(Cl)cc21	-24%	-26%	0%	0%	-5.2%	u	4%	-13%
63	COc1ccccc1-c1c(C)nn2c(N3CCC4(CC3)OCCO4)cc(C)nc12	-35%	0%	-25%	u	-1.0%	u	u	-10%
64	COCCNC(=O)CN(C(=O)c1ccc(N2CCCC2)nc1)c1ccc(Cl)cc1	2%	-12%	0%	x	x	x	x	-5%
65	Oc1ccccc1NCC(O)Cn1ccc2ccccc21 (stereo not given)	-54%	u	-11%	5%	-3.4%	u	-6%	-24%
66	O=C(CNC(=O)c1ccco1)OCC(=O)c1ccc(Cl)cc1	3%	-6%	0%	x	x	x	x	25%
